# HIV Env fusion: inhibitors of HIV-1 Env-driven cell-cell fusion, primary screen, HeLa-JRFL effector, CEM21 target cells, luciferase | inhibition, % at 12.3 µM | hit rate 1.1% among 360,000 | AID 651610, 2012;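 active means mean replicate inhibition score of at least 50 and every replicate individually at or above 50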;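 further: 0% = plate neutral controls and 100% = maraviroc near 300 nM; one replicate is shown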
# Yeast UUG start: modulators of yeast start codon fidelity, primary screen, whole organism, S. cerevisiae, single point, plate reader; S. cerevisiae UUG-firefly luciferase reporter, luminescence/redox ratio; activity score, % at 18.7 µM; hit rate 0.13% among 350,000; AID 602363, 2012;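 active means replicate mean at a twofold rise or more, about +100% in these data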;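 further: firefly luciferase made from a UUG start codon reports start codon fidelity; reporter light over untreated wells divided by growth signal over untreated wells; some hits fall short of that in this replicate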
# Starred values were filed as active, the others as inactive; [ ] = another dose, or the depositor's remark. These rows are one share of the data (hit frequency here may not be typical).
compound | HIV Env fusion | Yeast UUG start
CO[C@H]1CN(C)C(=O)c2cc(NC(=O)c3ccno3)ccc2OC[C@@H](C)NC[C@H]1C | -3.1[16.7 µM] | -3.5
Cc1ccc(-c2cnc3c(c2)C(=O)N([C@H](C)CO)C[C@H](C)[C@H](CN(C)C(=O)Cc2ccncc2)O3)cc1 | 15.9[16.7 µM] | -2.8
COc1cccc(C#Cc2ccc([C@@H]3[C@@H](C#N)N(C(=O)C4CCC4)[C@H]3CO)cc2)c1 | 12.0[16.7 µM] | -4.6
COCC(=O)N(C)C[C@@H]1Oc2cc(-c3ccc(OC)cc3)ccc2S(=O)(=O)N([C@H](C)CO)C[C@H]1C | 2.5[16.7 µM] | 3.9
CCC(=O)Nc1ccc2c(c1)OC[C@H](C)N(Cc1ccccc1F)C[C@H](C)[C@@H](OC)CN(C)C2=O | 27.1[16.7 µM] | -3.6
C[C@H]1CN([C@@H](C)CO)C(=O)Cc2cc(NS(=O)(=O)c3ccccc3)ccc2O[C@H]1CN(C)C(=O)Nc1cccc2ccccc12 | 5.5[16.7 µM] | 4.3
C[C@H](CO)N1C[C@H](C)[C@H](CN(C)C(=O)Nc2ccccc2)Oc2ncc(C#CC3CC3)cc2C1=O | -7.8[16.7 µM] | -16.6
O=C1C2C=C(Br)[C@H](C[C@@H]2OCCCCCCO)[C@@]12CO2 | -4.4[16.7 µM] | -14.5
N#C[C@H]1N[C@@H](CO)[C@H]1c1ccc(C2=CCCC2)cc1 | 1.5[16.7 µM] | -5.0
C[C@@H]1CN([C@@H](C)CO)C(=O)Cc2cc(NS(=O)(=O)c3ccc(Cl)cc3)ccc2O[C@H]1CN(C)C(=O)Nc1ccc(F)cc1 | 7.6[16.7 µM] | 2.9
C[C@H]1CCCCO[C@H](CN(C)S(=O)(=O)c2cn(C)cn2)[C@@H](C)CN([C@@H](C)CO)C(=O)c2cc(NS(=O)(=O)c3cccs3)ccc2O1 | 9.9[16.7 µM] | 8.9
CC(=O)N(C)C[C@@H]1Oc2ncc(C#Cc3ccccc3)cc2C(=O)N([C@@H](C)CO)C[C@H]1C | 5.4[16.7 µM] | -6.2
O=C(N[C@H]1CC[C@@H](CCn2cc(C3CC3)nn2)O[C@@H]1CO)c1cccnc1 | -11.6[16.7 µM] | 2.0
CC(C)C#Cc1ccc2c(c1)O[C@@H](CN(C)C(=O)C1CC1)[C@H](C)CN([C@@H](C)CO)S2(=O)=O | -14.3[16.7 µM] | 1.7
CO[C@H]1CN(C)C(=O)c2cc(NC(=O)c3cnccn3)ccc2OC[C@@H](C)NC[C@H]1C | -15.5[16.7 µM] | -10.3
C[C@H](CO)N1C[C@H](C)[C@H](CN(C)C(=O)Cc2cccnc2)Oc2ncc(-c3cncnc3)cc2C1=O | -33.8[16.7 µM] | -3.3
CNC[C@@H]1Oc2ccc(NC(=O)Nc3c(C)noc3C)cc2C(=O)N([C@H](C)CO)C[C@H]1C | -8.7[16.7 µM] | -13.0
CC(C)NC(=O)N(C)C[C@@H]1Oc2ncc(Br)cc2C(=O)N([C@H](C)CO)C[C@@H]1C | 8.1[16.7 µM] | -2.3
C/C=C/c1cnc2c(c1)C(=O)N([C@@H](C)CO)C[C@@H](C)[C@H](CN(C)S(=O)(=O)c1ccc(F)cc1)O2 | 9.8[16.7 µM] | 21.2
CCCNC(=O)N(C)C[C@H]1Oc2ncc(/C=C/c3ccccc3)cc2C(=O)N([C@H](C)CO)C[C@@H]1C | 16.7[16.7 µM] | -5.5
Cc1cccc(S(=O)(=O)N[C@H]2CC[C@H](CCNC(=O)CCN3CCCCC3)O[C@@H]2CO)c1 | -10.9[16.7 µM] | -1.7
O=C(C[C@H]1CC[C@@H](NC(=O)Nc2ccccc2F)[C@H](CO)O1)NCc1ccc(Cl)cc1 | 20.4[16.7 µM] | -2.7
C[C@H](CO)N1C[C@H](C)[C@@H](CN(C)C(=O)Nc2ccc(F)cc2)Oc2ncc(Br)cc2C1=O | -6.8[16.7 µM] | 2.3
CN1CCN(C(=O)C[C@H]2CC[C@H]3[C@@H](COC[C@@H](O)CN3C(=O)Nc3ccc4c(c3)OCO4)O2)CC1 | -10.4[16.7 µM] | -12.9
O=C(Nc1cccc(Cl)c1)N[C@H]1CC[C@@H](CCNC(=O)C2CCCC2)O[C@@H]1CO | -0.5[16.7 µM] | -1.6
COc1ccc(S(=O)(=O)N(C)C[C@@H]2OCCCC[C@H](C)Oc3ccc(NC(=O)C4CCCCC4)cc3C(=O)N([C@H](C)CO)C[C@@H]2C)cc1 | -64.4[16.7 µM] | 2.7
C[C@H](CO)N1C[C@H](C)[C@@H](CN(C)Cc2ccc3c(c2)OCO3)Oc2ccc(NS(C)(=O)=O)cc2CC1=O | 7.2[16.7 µM] | -4.6
CO[C@H]1CN(C)C(=O)c2cc(NC(C)=O)ccc2OC[C@@H](C)N(Cc2ccccc2C(=O)O)C[C@@H]1C | -1.9[16.7 µM] | -3.8
CC(C)CC#Cc1cnc2c(c1)C(=O)N([C@@H](C)CO)C[C@@H](C)[C@H](CN(C)Cc1cncnc1)O2 | -26.5[16.7 µM] | -2.7
COC(=O)C[C@H]1C[C@H]2c3cc(NC(=O)Nc4ccc(F)cc4)ccc3O[C@H]2[C@H](CO)O1 | -7.9[16.7 µM] | -18.1
N#C[C@H]1[C@@H](c2ccc(-c3ccncc3)cc2)[C@@H](CO)N1C(=O)Cc1ccccc1 | 0.1[16.7 µM] | 9.2
CN1C(=O)c2cc(NC(=O)c3ccc(F)cc3)ccc2OC[C@H]2O[C@H](CC(=O)NC3CCC3)CC[C@H]21 | -16.1[16.7 µM] | 14.0
C[C@H]1CCCCO[C@H](CN(C)C(=O)Nc2ccc3c(c2)OCO3)[C@@H](C)CN([C@@H](C)CO)C(=O)c2cc(NC(=O)NC3CCCCC3)ccc2O1 | -5.8[16.7 µM] | 2.0
O=C(Cc1cccnc1)N[C@@H]1CC[C@H](CCn2cc(-c3ccccc3F)nn2)O[C@@H]1CO | 5.7[16.7 µM] | -15.1
C/C=C/c1cnc2c(c1)C(=O)N([C@@H](C)CO)C[C@@H](C)[C@H](CN(C)Cc1ccncc1)O2 | -4.9[16.7 µM] | -1.8
C[C@@H]1CN([C@@H](C)CO)C(=O)c2cc(-c3cccc(C#N)c3)cnc2O[C@@H]1CN(C)C(=O)C1CC1 | -7.1[16.7 µM] | -0.1
CN(C)C(=O)C[C@H]1C=C[C@H](NC(=O)C2CC2)[C@@H](CO)O1 | 17.2[16.7 µM] | -8.2
C/C=C/c1ccc2c(c1)O[C@H](CN(C)C(=O)Nc1cc(F)ccc1F)[C@H](C)CN([C@H](C)CO)S2(=O)=O | 42.7[16.7 µM] | -2.6
COc1ccc(NC(=O)Nc2ccc3c(c2)C(=O)N([C@H](C)CO)C[C@@H](C)[C@@H](CN(C)S(=O)(=O)c2ccc(OC)cc2)O3)cc1 | -9.7[16.7 µM] | -3.9
C[C@H]1CN([C@@H](C)CO)C(=O)Cc2cc(NC(=O)c3ccncc3)ccc2O[C@@H]1CN(C)C(=O)Nc1ccc(C(F)(F)F)cc1 | -1.1[16.7 µM] | -0.6

# (list continues)
SMILES	HIV Env fusion	Yeast UUG start
O=C(C[C@@H]1CC[C@H]2[C@@H](COC[C@@H](O)CN2C(=O)c2cccnc2)O1)NCc1ccc(Cl)cc1	7.3[16.7 µM]	-12.8
C[C@@H]1CN([C@@H](C)CO)C(=O)c2cc(NC(=O)Nc3ccc(C(F)(F)F)cc3)ccc2O[C@@H](C)CCCCO[C@@H]1CN(C)C(=O)Nc1cccc2ccccc12	24.1[16.7 µM]	-6.7
O=C(C[C@H]1C=C[C@H](NC(=O)Nc2cc(F)ccc2F)[C@@H](CO)O1)NCc1ccccn1	6.6[16.7 µM]	-14.9
COc1ccc(S(=O)(=O)Nc2ccc3c(c2)CC(=O)N([C@H](C)CO)C[C@@H](C)[C@@H](CN(C)S(C)(=O)=O)O3)cc1	-25.9[16.7 µM]	-5.7
O=C(CN1CCOCC1)NCC[C@@H]1CC[C@H](NC(=O)Nc2ccc(C(F)(F)F)cc2)[C@@H](CO)O1	0.8[16.7 µM]	13.5
O=C(C[C@@H]1C=C[C@@H](NS(=O)(=O)c2ccc(F)cc2)[C@@H](CO)O1)NC1CCC1	10.7[16.7 µM]	0.3
O=C(C[C@@H]1CC[C@H]2[C@@H](COC[C@@H](O)CN2C(=O)c2cnccn2)O1)NCc1ccc(F)cc1	4.1[16.7 µM]	-12.6
C[C@@H]1CN([C@H](C)CO)C(=O)Cc2cc(NS(=O)(=O)c3ccc(F)cc3)ccc2O[C@H]1CN(C)C(=O)Nc1ccc(F)cc1	3.2[16.7 µM]	-1.6
C[C@@H]1CCCCO[C@@H](CN(C)Cc2ccc(C(F)(F)F)cc2)[C@H](C)CN([C@@H](C)CO)C(=O)c2cc(NC(=O)c3ccncc3)ccc2O1	-2.2[16.7 µM]	28.1
Cc1ccc(S(=O)(=O)N(C)C[C@@H]2Oc3c(NS(=O)(=O)c4ccc(F)cc4)cccc3C(=O)N([C@H](C)CO)C[C@H]2C)cc1	-0.8[16.7 µM]	36.7
O=C(N[C@H]1CC[C@@H](CCn2cc(-c3ccc(F)cc3)nn2)O[C@H]1CO)c1cnccn1	1.8[16.7 µM]	-3.6
COCC(=O)Nc1ccc2c(c1)[C@@H]1C[C@H](CC(=O)NC3CCCC3)O[C@H](CO)[C@@H]1O2	1.6[16.7 µM]	-19.6
CCCN(C)C[C@H]1Oc2ncc(C#CC3CCCCC3)cc2C(=O)N([C@H](C)CO)C[C@H]1C	-7.3[16.7 µM]	12.2
Cc1noc(C)c1S(=O)(=O)Nc1ccc2c(c1)CC(=O)N([C@@H](C)CO)C[C@H](C)[C@H](CN(C)Cc1ccc(Oc3ccccc3)cc1)O2	-6.4[16.7 µM]	-0.6
O=C(C[C@H]1CC[C@H](NS(=O)(=O)c2ccc(F)cc2)[C@@H](CO)O1)N1CCc2ccccc2C1	0.8[16.7 µM]	-1.6
CCNC(=O)C[C@@H]1CC[C@H]2[C@@H](COc3ccc(NS(=O)(=O)c4ccccc4C)cc3C(=O)N2C)O1	-57.8[16.7 µM]	-8.3
Cc1noc(C)c1S(=O)(=O)Nc1ccc2c(c1)C(=O)N([C@@H](C)CO)C[C@H](C)[C@H](CN(C)C(=O)NC1CCCCC1)OCCCC[C@@H](C)O2	-9.9[16.7 µM]	13.4
CN1C(=O)c2cc(NC(=O)c3ccccc3)ccc2OC[C@H]2O[C@H](CC(=O)O)CC[C@H]21	4.6[16.7 µM]	-21.8
CCOC(=O)C1=CN(Cc2cccc(F)c2)S(=O)(=O)N(CC)C1c1ccc2ccccc2c1 (stereo not drawn)	19.9	-0.4
C[C@H]1CN([C@@H](C)CO)S(=O)(=O)c2ccc(C#Cc3ccccc3)cc2O[C@H]1CN(C)CC1CC1	9.5[16.7 µM]	17.8
C[C@@H]1CN([C@@H](C)CO)C(=O)c2cc(NS(=O)(=O)c3ccc(Cl)cc3)ccc2O[C@@H](C)CCCCO[C@H]1CN(C)Cc1ccc(C(F)(F)F)cc1	22.5[16.7 µM]	3.4
CC(C)CC#Cc1ccc2c(c1)O[C@@H](CN(C)C(=O)Cc1cccnc1)[C@@H](C)CN([C@H](C)CO)S2(=O)=O	-21.9[16.7 µM]	-5.5
C[C@@H]1CN([C@H](C)CO)S(=O)(=O)c2ccc(C3=CCCC3)cc2O[C@H]1CN(C)C(=O)C1CCCCC1	5.2[16.7 µM]	1.2
C[C@H](CO)N1C[C@H](C)[C@H](CN(C)Cc2ccc(-c3ccccc3)cc2)Oc2ccc(NC(=O)Nc3ccc(C(F)(F)F)cc3)cc2C1=O	15.8[16.7 µM]	3.7
CCCC#Cc1ccc([C@H]2[C@@H](C#N)N(C(=O)C3CC3)[C@@H]2CO)cc1	-10.7[16.7 µM]	25.7
C[C@@H]1CCCCO[C@H](CN(C)Cc2ccc(C(=O)O)cc2)[C@@H](C)CN([C@H](C)CO)C(=O)c2cc(NS(=O)(=O)c3cn(C)cn3)ccc2O1	1.0[16.7 µM]	1.0
CCCC#Cc1ccc2c(c1)O[C@H](CN(C)S(=O)(=O)c1cccc(F)c1)[C@@H](C)CN([C@H](C)CO)S2(=O)=O	11.1[16.7 µM]	-19.4
CN1C[C@H](O)COC[C@@H]2O[C@H](CC(=O)NC3CCC3)CC[C@H]21	-7.7[16.7 µM]	-14.9
C[C@@H]1CCCCO[C@H](CN(C)C(=O)C2CCCCC2)[C@@H](C)CN([C@H](C)CO)C(=O)c2cc(NC(=O)Nc3ccccc3)ccc2O1	-35.9[16.7 µM]	-5.9
COCC(=O)Nc1ccc2c(c1)OC[C@H](C)N(C(=O)c1ccncc1)C[C@H](C)[C@@H](OC)CN(C)C2=O	5.1[16.7 µM]	1.4
Cc1noc(C)c1S(=O)(=O)Nc1ccc2c(c1)C(=O)N([C@H](C)CO)C[C@H](C)[C@H](CN(C)CC1CCCCC1)OCCCC[C@H](C)O2	-27.3[16.7 µM]	31.6
CN(C)CCCNC(=O)C[C@@H]1CC[C@@H](NS(=O)(=O)c2ccc(F)cc2)[C@@H](CO)O1	-19.5[16.7 µM]	-5.7

# An excerpt of these results, field by field.
> CCCC#Cc1ccc2c(c1)O[C@H](CN(C)S(=O)(=O)c1cccc(F)c1)[C@@H](C)CN([C@H](C)CO)S2(=O)=O
  HIV Env fusion: 11.1[16.7 µM] | Yeast UUG start: -19.4
> CN1C[C@H](O)COC[C@@H]2O[C@H](CC(=O)NC3CCC3)CC[C@H]21
  HIV Env fusion: -7.7[16.7 µM] | Yeast UUG start: -14.9

# From PubChem
